StopGo RLuc: lowers the Renilla signal of an FMDV 2A StopGo reporter; actives 0.32% (n = 120,000); HEK cells with a luciferase reporter of 2A StopGo recoding; Potency, µM (doses to about 57.5 µM), for the others: at the top dose signal change, negative = less light; active means well fitted falling curve with a large enough effect; inconclusive means small, poorly fitted or top-dose-only effect; inactive means no such curve, though single readings can be large or run the other way; note: nearly all actives have a fitted effect of over 55% in size; overnight with compound
StopGo FLuc: FMDV 2A StopGo reporter, firefly signal. HEK cells with a luciferase reporter of 2A StopGo recoding. Potency, µM (top dose mostly 57.5 µM), without a hit: at the top dose signal change, negative = less light. actives 0.23% (n = 120,000); active = well fitted falling curve with a large enough effect; inconclusive = small, poorly fitted or top-dose-only effect; inactive = no such curve, though single readings can be large or run the other way; note: nearly all actives have a fitted effect of over 60% in size; overnight with compound
An asterisk follows results filed as active; ? = inconclusive; & = joins results of further samples; [ ] = remark or other dose. % is set by controls: 0 for no effect and ±100 for the full control effect; potency is the fitted concentration of half-maximal effect. An unsorted share of the library, and some 0.53% of all compounds hit somewhere here.

No.	Molecule	StopGo FLuc	StopGo RLuc
1	Cc1cc(CSc2nnc(-c3cccnc3)n2C)no1	3%	-9%
2	Cc1ccc(C2CC(=O)N(Cc3ccccc3F)c3c2c(C)nn3-c2nc(C)cc(C)n2)cc1 (stereo not given)	-12%	56%[activator]
3	CCOc1ccc(Oc2ccccc2NC(=O)c2cccc(CN3CCCC3=O)c2)cc1	-2%	2%
4	Fc1ccc(NC(=S)NCCSc2ccc(Cl)cc2)cc1Cl	?	-24%
5	Cc1cc(C)c2cc(C(=O)OC(C)C(=O)N3CCCCCC3)[nH]c2c1 (stereo not given)	47%[activator]	25%
6	COC(=O)CNC(=O)C1(c2ccccc2)CCC1	1%	0%
7	Cc1oc(-c2ccccc2)nc1CC(=O)Nc1ccc(F)cc1Cl	19%	20%
8	COC(=O)c1c(-c2cccs2)csc1NC(=O)COc1ccccc1	65%[activator]	35%[activator]
9	CCOc1ccc2nc(N3CCCC(C(=O)NCc4ccccc4OC)C3)sc2c1 (stereo not given)	8%	-5%
10	O=C(CCc1cccnc1)NCCC12CC3CC(CC(C3)C1)C2	69%[activator]	10%
11	Cc1cc(C)nc(Nc2ncc(O)n2-c2ccccc2)n1	-1%	-4%
12	CCCN1CCN(C(=O)CN2C(=O)c3cccnc3Oc3ccc(Cl)cc32)CC1	1%	-4%
13	Cc1cc(C)c(OCC(=O)Nc2ccc3oc(C)nc3c2)c(C)c1	0%	22%
14	Cc1cc(-c2ccc(S(=O)(=O)N3CCN(c4cc(Cl)ccc4C)CC3)s2)on1	8%	-2%
15	Cc1ccc(C)c(NC(=O)Cn2nc(C)c3nn(-c4ccc(Cl)cc4)c(C)c3c2=O)c1	-13%	-10%
16	Cn1nnc(NC(=O)COc2ccc(Cl)cc2Cl)n1	54%[activator]	12%
17	CCCCN(CC)CCCNC(=O)c1nn(C)c2c1CSc1ccccc1-2	-18%	-27%
18	CC1CCn2c(nc3cc(C(=O)NCc4ccc(OC(C)C)cc4)ccc32)C1 (stereo not given)	82%[activator]	16%
19	COc1cc2nc(CSCC(=O)N3CCCC3)[nH]c(=O)c2cc1OC	64%[activator]	40%[activator]
20	c1ccc(CCNc2nc(Nc3ccccc3)c3nccnc3n2)cc1	199%[activator]	4%
21	Cc1[nH]c2ccccc2c1C(=O)/C=C/c1ccc(F)c(F)c1	182%[activator]	-18%
22	O=C(O)c1cccnn1	17%	23%
23	Cc1ccc(NC(=O)c2nnn(Cc3ccccc3)c2N)cc1C	0%	48%[activator]
24	Cc1c(NC(=O)c2cccc3c(Cl)cccc23)cccc1-c1nc2ccccc2o1	?	12%
25	C=CCNc1nc2c(c(=O)[nH]c(=O)n2C)n1Cc1cccc(C)c1	5%	-4%
26	O=c1c2oc3ccccc3c2n(Cc2ccc(Cl)cc2)c(=O)n1Cc1ccco1	67%[activator]	89%[activator]
27	CCCCCCc1cc2cc(-c3nnc(-c4cccc(Cl)c4)o3)c(=O)oc2cc1O	-8%	-7%
28	COc1ccc(Cl)cc1-n1ccc2c(cnc3nc(C(F)(F)F)nn32)c1=O	-7%	-10%
29	CC(C)(c1ccc(O)cc1)c1ccc(O)cc1	4%[22.9 µM]	?
30	COC(=O)C1(NC(=O)c2ccc3c(c2)OCO3)CCCCC1	-16%	-14%

Some of the entries above, reformatted.
Second line of a record – StopGo FLuc	StopGo RLuc
5. Cc1cc(C)c2cc(C(=O)OC(C)C(=O)N3CCCCCC3)[nH]c2c1 (stereo not given)
→ 47%[activator]	25%
15. Cc1ccc(C)c(NC(=O)Cn2nc(C)c3nn(-c4ccc(Cl)cc4)c(C)c3c2=O)c1
→ -13%	-10%
18. CC1CCn2c(nc3cc(C(=O)NCc4ccc(OC(C)C)cc4)ccc32)C1 (stereo not given)
→ 82%[activator]	16%

Continued:
No.	Molecule	StopGo FLuc	StopGo RLuc
31	CC(=O)c1cccc(Nc2ccc3cc(S(=O)(=O)N4CCCC4)ccc3n2)c1	2%&-1%	133%&113%[activator]
32	CCC(=O)NCC(=O)NC1CCN(S(=O)(=O)c2ccc(NC(C)=O)cc2)CC1	33%	27%
33	Cc1ccc2c(=O)cc(C(=O)Nc3sc4c(c3C(=O)NCc3cccnc3)CCCC4)oc2c1C	-2%	-9%
34	COc1ccccc1NC(=O)c1cc2c(n(-c3ccc(C)cc3)c1=O)CC(C)(C)CC2=O	17%	-4%
35	COc1cccc(C2=NN(C(=O)c3cccs3)C(c3ccc4nccnc4c3)C2)c1 (stereo not given)	167%[activator]	-16%
36	CC(C)(C)NC(=O)NC(O)C(Cl)(Cl)Cl (stereo not given)	11%	13%
37	COc1ccc(-c2cccc(NS(=O)(=O)c3cc(C(F)(F)F)ccc3Cl)c2)nn1	18%&-1%	176%[activator]
38	CCCNC(=O)NNC(=O)C(CC)c1ccccc1 (stereo not given)	-7%	-5%[1.06 µM]
39	COc1ccc(C(=O)N2CCC(C(=O)NC(C)c3cccc(Cl)c3)CC2)c2ccccc12 (stereo not given)	-28%	12%
40	Cc1ccc(C)c(NC(=O)COC(=O)Cn2cnc3c2c(=O)n(C)c(=O)n3C)c1	7%	-2%
41	O=C(NC1CCCCCC1)c1ccc2c(Cl)c3c(nc2c1)CCC3	23%	86%[activator]
42	CN(C(=O)CCn1nc(-c2ccc(Cl)cc2)c2ccccc2c1=O)c1ccccc1	6%	-6%
43	Cc1nc2cc(NC(=O)C3CC(=O)N(C4CC4)C3)ccc2o1 (stereo not given)	122%[activator]	1%
44	COc1cc(/C=C(/C#N)C(=O)c2ccccc2)cc(Cl)c1O	3%	2%
45	Cc1ccc(C)c(OCCn2cc(C(=O)c3cccs3)c3ccccc32)c1	?	?
46	Cc1ccc(N=c2scc(-c3ccccc3)n2-c2ccc(C)cc2)cc1	12%	17%
47	O=C(c1n[nH]c(=O)c2ccccc12)N1CCN(S(=O)(=O)c2ccccc2)CC1	-11%	-12%
48	COc1ccc(NC(=O)c2cc(=O)[nH]c3ccccc23)cc1	7%	-4%
49	O=C(Nc1c(NC2CCCCC2)c2ccccc2oc1=O)c1ccccc1Cl	4%	10%
50	Cc1ccc(OC(C)C(=O)NC2CCCC2)c(C)c1 (stereo not given)	-2%	-10%
51	Cc1ccc(Nc2nc(-c3ccc(S(=O)(=O)N4CCOCC4)cc3)cs2)cc1Cl	118%[activator]	22%
52	CCOC(=O)C1CCN(C(=O)c2ccc3c(c2)sc2nc(-c4ccc(OC)cc4)cn23)CC1	0%	-10%
53	CC(C)CN(C(=O)CN(C)C(=O)Cc1ccc(Cl)cc1)c1c(N)n(CC(C)C)c(=O)[nH]c1=O	-3%	6%
54	CCc1cc(=O)[nH]c(SCc2nc(-c3cccc(Cl)c3)no2)n1	-10%	-16%
55	O=C(NCc1ccncc1)c1nc(-c2ccc3[nH]ccc3c2)no1	42%[activator]	66%[activator]
56	Cc1ccc(CNC(=O)c2ccc(CSCc3c(F)cccc3Cl)o2)cc1	-6%	8%
57	Nc1c(C(=O)Nc2ccccc2)nnn1Cc1ccc(F)cc1Cl	78%[activator]	157%[activator]
58	Cc1oc(-c2cccc(Cl)c2)nc1CN1CCC(C(=O)NC(C)C)CC1	-12%	-6%
59	COc1ccc(C(=O)N2CCN(c3oc(-c4ccccc4OC)nc3C#N)CC2)cc1	-3%	-11%
60	COCCNC(=O)CCn1c(=O)[nH]c2cc(OC)c(OC)cc2c1=O	-16%	-8%

Compound profiles, as listed above. Screens in order: StopGo FLuc, StopGo RLuc
Results for `CC(=O)c1cccc(Nc2ccc3cc(S(=O)(=O)N4CCCC4)ccc3n2)c1` = 2%&-1%, 133%&113%[activator]
Results for `COc1ccc(C(=O)N2CCC(C(=O)NC(C)c3cccc(Cl)c3)CC2)c2ccccc12` (stereo not given) = -28%, 12%
Results for `CCCNC(=O)NNC(=O)C(CC)c1ccccc1` (stereo not given) = -7%, -5%[1.06 µM]
Results for `O=C(NCc1ccncc1)c1nc(-c2ccc3[nH]ccc3c2)no1` = 42%[activator], 66%[activator]

Next part.
No.	Molecule	StopGo FLuc	StopGo RLuc
61	COc1ccc(Oc2c(C)oc3cc(OCC(=O)NCc4ccco4)ccc3c2=O)cc1	1%	3%
62	COCCNC(=O)CN1C(=O)COc2ccc(S(=O)(=O)N3CCCC3)cc21	-1%	-4%
63	Cc1cccc(CNC(=O)CCCN2C(=O)CCn3nc(-c4cn(C)c5ccccc45)cc32)c1	-17%	-17%
64	CCN1CCC(=O)C(C)C1C (stereo not given)	3%	6%
65	CCN1CCN(C(=O)c2cc3cc(Cl)cc(Cl)c3oc2=O)CC1	-4%	9%
66	O=C(/C=C/c1cccs1)c1cc2ccccc2o1	180%[activator]	345%[activator]
67	CCC(C(=O)Nc1cc(F)ccc1F)n1nc(-c2ccccc2)ccc1=O (stereo not given)	12%	16%
68	Cc1nn(-c2ccc(F)cc2)c2nc(C3CC3)c(Cl)c(C(=O)O)c12	11%	4%
69	C[C@H](NC(=O)C(=O)Nc1ccc2cc[nH]c2c1)c1ccccc1	0%	9%
70	COc1cc(Cl)c(NS(=O)(=O)c2ccc(-c3cnc(C4CC4)o3)cc2)c(OC)c1	?	?
71	COC(=O)c1sccc1NC(=O)CC1(C(=O)O)CCCCCC1	2%	-1%
72	Cc1ccccc1CN(C)C(C(=O)NC1CC1)c1ccccc1 (stereo not given)	-6%	18%
73	CCCn1c2ccccc2c2cnn(CC(=O)NC(C)CC)c(=O)c21 (stereo not given)	-12%	1%
74	Cc1ccc(N(C)S(=O)(=O)c2c(-c3cccc(F)c3)csc2C(=O)NCc2cccnc2)cc1	-24%	53%[activator]
75	COc1ccccc1CNC(=O)CCC1N=C2c3ccccc3N=C(SCc3ccc(C)cc3C)N2C1=O (stereo not given)	?	2%
76	COc1ccc(CC(=O)NCc2ccc3c(c2)CCN3C(=O)c2ccc(C)cc2)cc1OC	-13%	-6%
77	O=C(CN1CCN(c2ccccc2)CC1)N1N=C(c2cc3ccccc3o2)CC1c1ccco1 (stereo not given)	0%	-5%
78	CCOc1ccccc1NC(=O)Cn1cnc2c1c(=O)n(C)c(=O)n2C	-17%	0%
79	Cc1c(C(=O)N2CCOCC2)oc2c1-c1nn(CC(=O)NCc3cccc(Cl)c3)cc1CC2	1%	45%[activator]
80	Cc1c(O)ccc2c(CN3CCN(Cc4ccccc4)CC3)cc(=O)oc12	-18%	-28%
81	CCCN(Cc1cccs1)C(=O)Nc1cc(C)ccc1OC	2%	6%
82	CCOc1cc(C)c(C(C)C)cc1S(=O)(=O)NC1CC(C)(C)NC(C)(C)C1	-8%	92%[activator]
83	COc1ccccc1Nc1nc(N)c(C(=O)c2cc(C)c(C)cc2C)s1	0%	18%
84	Cc1ccc(Cl)cc1NC(=O)CSc1nccn1C	20%	7%
85	COC(=O)CCN(C(=O)C1CCN(S(=O)(=O)c2c(C)noc2/C=C/c2ccccc2F)CC1)c1ccccc1	-17%	-11%
86	COc1cccc(NC(=O)N2CCOc3ccc(Cl)cc32)c1	12%	2%
87	Cc1ccc(-n2ncc3c(NNC(=O)c4ccccc4C)ncnc32)cc1	48%[activator]	6%
88	CCN(CC)c1ccc(NC(=O)c2cc(S(=O)(=O)N3CCc4ccccc43)cn2C)c(C)c1	-18%	-14%
89	COc1nnc(-c2ccc(N3CCCCC3)c(NC(=O)c3ccccc3Cl)c2)c2ccccc12	?	3%
90	CCCCn1c(=O)[nH]c(=O)c2c1nc(CSc1nnnn1C1CCCC1)n2C	168%[activator]	4%

Reprinted from the part before: 2 compounds, followed by the next part.
No.	Molecule	StopGo FLuc	StopGo RLuc
89	COc1nnc(-c2ccc(N3CCCCC3)c(NC(=O)c3ccccc3Cl)c2)c2ccccc12	?	3%
90	CCCCn1c(=O)[nH]c(=O)c2c1nc(CSc1nnnn1C1CCCC1)n2C	168%[activator]	4%
91	O=C(/C=C/c1cccc(O)c1)c1ccc(F)cc1	190%[activator]	32%[activator]
92	CCCCCN(CCCOC)C(=O)C(CCC(=O)O)NC(=O)c1ccc(Cl)c(Cl)c1 (stereo not given)	-9%[11.5 µM]	-7%
93	O=c1cc(C(F)(F)F)[nH]c(=S)[nH]1	0%	-3%[1.06 µM]
94	Cn1c(=O)c2c(nc(CN3CCN(Cc4ccccc4)CC3)n2CCc2ccccc2)n(C)c1=O	9%	-6%
95	CNS(=O)(=O)c1ccc(Nc2c(C)nn(C)c2C)c([N+](=O)[O-])c1	2%	-4%
96	Cc1ccc(NC(=O)/C=C/c2ccc(C)o2)c(C)c1	109%[activator]	-5%
97	CCOC(=O)c1nnc2c(-c3ccc(OC)cc3)c(C)nn2c1N	9%	-5%
98	O=C(c1ccc(Br)cc1)N1CCC(c2nc3ccccc3s2)CC1	-15%	2%
99	O=c1ccc(-c2ccc(Cl)cc2)nn1CCNS(=O)(=O)c1ccc(C(F)(F)F)cc1	-14%	0%
100	CCC(C)NC(=O)CCNC(=O)Cc1c(C)nc2nc(N)nn2c1C (stereo not given)	4%	-1%
101	CCc1ccccc1NC(=O)CN(C)C(=O)c1nn(-c2ccccc2)c2c1CCC2	3%	-2%
102	CC(C)OCc1ccccc1CNS(=O)(=O)c1ccc(Br)cc1Cl	9%	204%[activator]
103	CCOC(=O)c1ccc(N2C(=O)c3n[nH]c(C)c3C2c2ccccc2OC)cc1 (stereo not given)	-1%	35%[activator]
104	Cc1nc(Nc2nc(C(C)C)cc(=O)[nH]2)nc2c(C)cccc12	82%[activator]	67%[activator]
105	COCCCNC(=S)NNC(=O)CSCc1ccccc1	-7%	-14%
106	Cc1c(CC(=O)NCCc2ccc(F)cc2)c(=O)oc2cc(O)ccc12	16%	10%

Down the list, as entered above.
StopGo RLuc for nos. 95 to 101, in order: -4%, -5%, -5%, 2%, 0%, -1%, -2%
StopGo FLuc for nos. 95 to 101, in order: 2%, 109%[activator], 9%, -15%, -14%, 4%, 3%

Screens (PubChem BioAssay)
